Rango complex inh: prevents formation of the Rango-importin beta complex. Rango CFP/YFP FRET sensor + importin beta, 45 min. Potency, µM (doses to about 92.2 µM), inactives show at the top dose inhibition of complex formation. 0.031% of 340,000 active; active = rising FRET ratio curve, often small or poorly fitted; inconclusive = mostly compound fluorescence or quenching in the first reads; inactive = flat curves in all reads;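 note: potency is the fitted concentration of half-maximal effect; 0% = DMSO wells and 100% = buffer wells lacking importin beta; nearly all actives have a fitted effect of over 15% in size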
Target sequence (Q14974 whole entry, looked up): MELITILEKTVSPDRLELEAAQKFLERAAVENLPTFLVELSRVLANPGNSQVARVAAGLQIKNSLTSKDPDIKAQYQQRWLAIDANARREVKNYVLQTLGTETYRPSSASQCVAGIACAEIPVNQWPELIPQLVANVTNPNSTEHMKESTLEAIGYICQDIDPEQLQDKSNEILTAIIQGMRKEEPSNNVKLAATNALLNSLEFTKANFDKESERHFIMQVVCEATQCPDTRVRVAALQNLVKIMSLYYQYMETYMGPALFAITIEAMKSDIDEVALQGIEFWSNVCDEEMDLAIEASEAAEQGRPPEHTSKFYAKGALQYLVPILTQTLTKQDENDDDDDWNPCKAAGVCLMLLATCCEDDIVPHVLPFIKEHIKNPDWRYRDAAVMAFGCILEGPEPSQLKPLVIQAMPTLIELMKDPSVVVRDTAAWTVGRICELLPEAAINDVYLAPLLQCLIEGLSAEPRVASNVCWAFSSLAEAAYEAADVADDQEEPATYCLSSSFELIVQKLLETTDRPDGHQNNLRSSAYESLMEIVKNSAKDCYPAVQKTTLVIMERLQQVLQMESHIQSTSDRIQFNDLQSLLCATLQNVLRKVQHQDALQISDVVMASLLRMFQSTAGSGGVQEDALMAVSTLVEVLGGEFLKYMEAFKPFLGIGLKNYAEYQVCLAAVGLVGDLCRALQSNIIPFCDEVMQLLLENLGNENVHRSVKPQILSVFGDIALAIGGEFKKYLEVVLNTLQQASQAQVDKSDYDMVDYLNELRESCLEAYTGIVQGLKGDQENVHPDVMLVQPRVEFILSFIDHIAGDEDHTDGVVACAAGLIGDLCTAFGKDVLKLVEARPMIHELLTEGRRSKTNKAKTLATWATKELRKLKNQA
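FRET biosensor (snurportin 1 IBB flanked by EYFP and cerulean), 50 nM, with compound 5 min, then 0.125 microM importin beta in PBS, 1 mM DTT, 0.02% Tween-20, 0.1% BSA. CFP/YFP ratio read after 45 min at room temperature; pre-read flags interference.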
miR-21 FLuc: miR-21 reporter, rising signal | HeLa miR-21 FLuc reporter, luciferase, 48 h | Potency, µM (titrated, usually from 38.3 µM), without a hit: top-dose reporter change, positive = more light | 340,000 tested, under 10 active; active = well fitted rising curve with a large enough effect; inconclusive = small, poorly fitted or top-dose-only effect; inactive = no such curve, though single readings can be large or run the other way;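 note: % of control where 0% means no effect; miR-21 action dims this reporter so a rising signal means less miR-21 action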
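Using DMEM plus 10% FBS, HeLa miR-21-FLuc cells are incubated with test compounds (final up to about 40uM) for 48 hours; firefly luciferase signal is then imaged following reagent-mediated lysis.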
Rango dissoc inh: prevents RanGTP from dissociating the Rango-importin beta complex; O95149+P62826; Biochemical FRET Rango-importin beta, RanGTP-induced dissociation; Potency, µM (doses to about 46.1 µM), for the others: top-dose activity change, negative = inhibition; AID 540253; 0.071% of 340,000 active; active means falling FRET ratio curve, often poorly fitted, with flat reads before Ran was added; inconclusive means other falling curves, or compound fluorescence or quenching; inactive means flat or rising ratio curve;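 note: potency is the fitted concentration of half-maximal effect; % of control where 0% means no effect; nearly all actives have a fitted effect of over 45% in size; -100% = wells without RanGTP and RCC1; the record marks most hits as doubtful in a second field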
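Two FRET readings bracket the reaction: one 5 min after compound meets Rango–importin beta, another 45 min after RanGTP-RCC1 (0.6 uM Ran, 0.2 uM RCC1, 2 mM GTP) is added. Only the second defines inhibition.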
GLA inh pH 4.5: inhibitors of human alpha-galactosidase A at pH 4.5; purified enzyme, 4-MU-alpha-Gal fluorescence, pH 4.5; activity change, negative = inhibition, % at 105 µM; 230,000 tested, under 10 active; AID 1467; inconclusive = small, poorly fitted or top-dose-only inhibition, or a rising curve; inactive = flat fitted curve, though single readings scatter; no compound was filed as active;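 note: 0% = full activity with enzyme and -100% = basal without enzyme; dose as in the result columns while the protocol names 77 µM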
Active calls of the source: *; u = inconclusive; x = no result given; & = joins results of further samples. A portion of the library. The share of hits here may be higher or lower than overall.

| Rango complex inh | miR-21 FLuc | Rango dissoc inh | GLA inh pH 4.5 | mol |
| --- | --- | --- | --- | --- |
| 0.3% | x | 2.0% | x | Cc1nc2ccc(NC(=O)c3ccc(C)c(S(=O)(=O)N4CCOCC4)c3)cc2s1 |
| -0.3% | -0.3% | 11.1% | x | COc1ccc(NC(=S)N2CCC(Cc3ccccc3)CC2)cc1 |
| 2.5% | -13.7% | -0.9% | 14.3 | O=Cc1nc(-c2ccc(Cl)cc2)n2ccccc12 |
| 7.7% | 0.4% | -5.6% | x | CCN(C(=O)CN1C(=O)S/C(=C\c2ccccc2OC)C1=O)C1CCS(=O)(=O)C1 (stereo unspecified) |
| 3.9% | -1.8% | -7.4% | -9.4 | COCCN(CCOC)C(=S)Nc1cc(S(=O)(=O)N(C)C)ccc1C |
| -7.4%&5.3% | u | u | -2.9 | CCN1CCN(Cc2ccc(NC(=O)c3ccc(C)c(NC(=O)C(=O)c4c[nH]c5ccccc45)c3)cc2C(F)(F)F)CC1 |
| -2.4% | -29.2% | 18.0% | 11.9 | C1=C(CCNc2ncnc3nc[nH]c23)CCCC1 |
| -2.0% | -42.3% | -3.5% | 5.1 | O=C(Nc1ccc(Cl)cn1)c1cnn2cccnc12 |

Exported with each value named: part of the list above.
> C1=C(CCNc2ncnc3nc[nH]c23)CCCC1
  Rango complex inh: -2.4%
  miR-21 FLuc: -29.2%
  Rango dissoc inh: 18.0%
  GLA inh pH 4.5: 11.9
> O=C(Nc1ccc(Cl)cn1)c1cnn2cccnc12
  Rango complex inh: -2.0%
  miR-21 FLuc: -42.3%
  Rango dissoc inh: -3.5%
  GLA inh pH 4.5: 5.1

(listing goes on)
| Rango complex inh | miR-21 FLuc | Rango dissoc inh | GLA inh pH 4.5 | mol |
| --- | --- | --- | --- | --- |
| 7.5% | -2.2% | 18.4% | -5.7 | COC(=O)Cn1c2c(c3cc(C)ccc31)CCCC2NC(C)c1ccccc1 (stereo unspecified) |
| 0.6% | x | 9.6% | x | COCCNC(=O)c1ccc2c(c1)S(=O)(=O)c1ccccc1C2=O |
| -4.1% | 17.5% | -8.5% | 2.3 | CCc1ccc2[nH]c(=O)c(C3C(C#N)=C(N)Oc4c3ccc3cccnc43)cc2c1 (stereo unspecified) |
| 0.5% | -37.1% | -3.2% | 1.1 | Cc1ccc(O)c(C2=Nc3ccccc3C2(C)C)c1 |
| x | -0.3% | x | -2.8 | O=c1c2c3c(sc2nc(N2CCNCC2)n1-c1cccc(Cl)c1)CCCCC3 |
| -1.2% | x | -1.1% | x | Cn1c(SCC(=O)Nc2sccc2C(N)=O)nc2ccccc2c1=O |
| x | -22.9% | x | 11.3 | CC1CN(c2nc3ccccc3nc2C(C#N)C(=O)NC2CCCCC2)CC(C)O1 (stereo unspecified) |
| 2.3% | -13.8% | 2.0% | -6.7 | Cc1cc(N2CCOCC2)ncc1[N+](=O)[O-] |
| -2.4% | -3.5%&0.0% | -0.5% | x | CC(C)OCCCN(C)C1CCN(S(=O)(=O)c2csc(C(N)=O)c2)CC1 |
| 0.8% | 4.0% | -8.8% | x | CCCCN1CC(=O)N2[C@H](c3ccc(Cl)cc3)[C@@H]3C(=O)N(CC)C(=O)[C@@H]3[C@]2(C)C1=O |
| 3.3% | x | 9.4% | 0.1 | CCCCCC1C(=O)CCC1CC(=O)OC (stereo unspecified) |
| -3.2% | -1.0% | 7.4% | 4.0 | CCOC(=O)N1CCN(c2c(NCC3CCN(Cc4cccc(C)c4)CC3)c(=O)c2=O)CC1 |
| u | x | u | x | Cc1ccc2nc(-c3cccc(SC4CCCCC4)c3)c(NCc3ccccc3)n2c1 |
| 0.7% | 2.5% | 17.7% | x | COC(=O)C1CN(C(=O)COc2ccc(C)c(C)c2)c2ccccc2O1 (stereo unspecified) |
| -0.1% | -55.9% | -12.6% | 3.3 | Fc1ccc(Nc2nc(-c3cccnc3)cs2)cc1 |
| -0.4% | 8.2% | -8.1% | x | CN(C)Cc1c(C(=O)N/N=C/c2cccs2)nnn1-c1nonc1N |
| -3.9% | -0.7% | -9.1% | -7.4 | CC(C)CC1c2[nH]c3ccccc3c2CCN1CCCn1cccn1 (stereo unspecified) |
| -2.0% | x | -1.1% | x | O=C(NCC1CCCN1S(=O)(=O)c1cccs1)c1ccc([N+](=O)[O-])cc1 (stereo unspecified) |
| 1.7% | -10.5% | 13.2% | 0.0 | Cc1cc(NC(=O)CSCc2ccccc2)no1 |
| 6.7% | -7.9% | -3.8% | -1.3 | COCCN(CC(=O)NC1CCCCC1)C(=O)CSc1nc2ccccc2o1 |
| -1.5% | -6.0% | 1.2% | 4.8 | Cc1ccc(C(=O)N[C@H](C(=O)Nc2cc(Cl)cc(Cl)c2)C(C)C)cc1 |
| -1.2% | 18.7% | 9.6% | -0.5 | CCS(=O)(=O)c1ccc(C(=O)Nc2cccc(Cl)c2)c(Cl)c1Cl |
| 3.0% | 10.7% | -7.1% | 4.8 | CCOc1ccc(C(O)Cn2c(=N)n(CCN3CCCCC3)c3ccccc32)cc1 (stereo unspecified) |
| -4.0% | 1.2% | 5.9% | x | CCc1ccc(Nc2nc(N3CCOCC3)nc(N3CCOCC3)n2)cc1 |

Profiles from above. Order of screens: Rango complex inh, miR-21 FLuc, Rango dissoc inh, GLA inh pH 4.5
Profile of Fc1ccc(Nc2nc(-c3cccnc3)cs2)cc1 → -0.1%, -55.9%, -12.6%, 3.3
Profile of COC(=O)C1CN(C(=O)COc2ccc(C)c(C)c2)c2ccccc2O1 (stereo unspecified) → 0.7%, 2.5%, 17.7%, x
Profile of C1=C(CCNc2ncnc3nc[nH]c23)CCCC1 → -2.4%, -29.2%, 18.0%, 11.9
Profile of CCc1ccc2[nH]c(=O)c(C3C(C#N)=C(N)Oc4c3ccc3cccnc43)cc2c1 (stereo unspecified) → -4.1%, 17.5%, -8.5%, 2.3
Profile of Cc1cc(NC(=O)CSCc2ccccc2)no1 → 1.7%, -10.5%, 13.2%, 0.0

Four structures already listed, sorted by length of the SMILES, falling:
| Rango complex inh | miR-21 FLuc | Rango dissoc inh | GLA inh pH 4.5 | mol |
| --- | --- | --- | --- | --- |
| -2.0% | x | -1.1% | x | O=C(NCC1CCCN1S(=O)(=O)c1cccs1)c1ccc([N+](=O)[O-])cc1 (stereo unspecified) |
| -1.5% | -6.0% | 1.2% | 4.8 | Cc1ccc(C(=O)N[C@H](C(=O)Nc2cc(Cl)cc(Cl)c2)C(C)C)cc1 |
| 3.0% | 10.7% | -7.1% | 4.8 | CCOc1ccc(C(O)Cn2c(=N)n(CCN3CCCCC3)c3ccccc32)cc1 (stereo unspecified) |
| -4.0% | 1.2% | 5.9% | x | CCc1ccc(Nc2nc(N3CCOCC3)nc(N3CCOCC3)n2)cc1 |

Carrying on.
| Rango complex inh | miR-21 FLuc | Rango dissoc inh | GLA inh pH 4.5 | mol |
| --- | --- | --- | --- | --- |
| -3.2% | -3.2% | -11.5% | 7.7 | CCOC(=O)C(NC(=O)CC)(Nc1sc2c(c1C(=O)OC)CCN(C)C2)C(F)(F)F (stereo unspecified) |
| 0.2% | 4.6% | -1.4% | -1.6 | CCS(=O)CC(=O)Nc1c(-c2ccccc2)oc2ccccc2c1=O (stereo unspecified) |
| 8.3% | -4.9% | 0.5% | 6.3 | COc1ccc(/C=N/NC(=O)c2ccccc2O)cc1Cn1cc(Cl)cn1 |
| -1.8% | 1.8% | -9.1% | x | CCCNc1c(NS(=O)(=O)c2ccc(Cl)s2)c(=O)oc2ccccc12 |
| 1.1% | -7.6% | -3.5% | 1.1 | Cc1ccsc1/C=N/NC(=O)Cc1cc(=O)[nH][nH]1 |
| -1.8% | -32.7% | -8.2% | 2.0 | O=C(COc1ccc(/C=N/NS(=O)(=O)c2ccccc2)cc1)Nc1ccccc1 |
| 4.2% | -0.2% | 4.1% | x | COc1ccc(N2CCN(S(=O)(=O)c3c(C)nc4sccn4c3=O)CC2)cc1 |
| 0.9% | -2.8% | 9.9% | -6.0 | COc1ccc(CCNC(=O)CN(c2cccc([N+](=O)[O-])c2)S(C)(=O)=O)cc1OC |
| 0.7% | x | 12.7% | x | O=C(COc1ccc(C(=O)NCc2cccnc2)cc1)Nc1cccc(C(F)(F)F)c1 |
| -0.3% | -2.0% | 2.6% | 2.4 | COc1ccc(C2C(C#N)=C(C)NC(C)=C2C#N)c(OC)c1 |
| -1.8% | -10.7% | -2.6% | 0.9 | CCOC(=O)N1CCN(Cc2nc(Cc3cccc(F)c3)no2)CC1 |
| 4.7% | -2.4% | 11.9% | 0.5 | Cc1ccccc1C(=O)Oc1ccccc1C(=O)N1CCOCC1 |
| 2.5% | 3.2% | -6.7% | x | Cc1ccc(C2=Nn3c(COc4ccc(Cl)cc4)nnc3SC2CC(=O)O)cc1 (stereo unspecified) |
| 8.2% | -10.4% | 1.1% | 2.1 | N/C(=N\OC(=O)c1cc([N+](=O)[O-])ccc1Cl)c1ccccn1 |
| 0.1% | 1.3% | 11.2% | 3.1 | COc1cc(C(=O)Nc2nc3ccc(S(C)(=O)=O)cc3s2)cc(OC)c1C |
| -2.2% | x | 13.1% | x | O=C(Nc1ccc(F)cc1)c1ccc(C(=O)N2CCOCC2)cc1 |
| u | 3.1% | 3.1% | 3.3 | CCOC(=O)c1[nH]c2ccccc2c1NC(=O)CC |
| 4.0% | -50.0% | -16.6% | -12.7 | CC(Oc1ccc(Cl)cc1Cl)C(=O)Nc1ncccn1 (stereo unspecified) |
| -1.3% | -31.2% | -18.1% | x | Cc1ccc(-c2ccc(C(=O)NCCCNC(=O)c3cnccn3)o2)cc1Cl |
| 6.7% | x | 4.6% | x | COc1ccccc1C(=O)Nc1ccnn1C1CCN(C(=O)c2ccoc2)CC1 |
| 0.2% | x | 0.0% | x | O=C(CSc1ccccc1C(=O)N1CCN(c2ccc([N+](=O)[O-])cc2)CC1)N1CCCC1 |
| -2.9% | -29.2% | 0.8% | 2.4 | COc1ccc(-c2cc(C(=O)N3CCc4ccccc4C3)no2)cc1 |
| 2.6% | x | -15.1% | x | CCOc1ccccc1NC(=O)COc1coc(CN2CCc3ccccc32)cc1=O |
| -5.1% | -10.6% | -13.9% | -8.6 | Cc1ccccc1SCc1noc(C(=O)NC(C)C)c1C(=O)O |
| 2.0% | -4.5% | 32.9% | -3.7 | Cc1ccc(C)c(NS(=O)(=O)c2ccc(OCC(=O)NCC3CCCO3)cc2)c1 (stereo unspecified) |
| -1.1% | 8.2% | 2.6% | x | CC1CCN(C(=O)C2CCCN(S(=O)(=O)c3ccc4c(c3)CC(C)N4C(=O)C3CC3)C2)CC1 (stereo unspecified) |
| -4.2% | 6.3% | 4.7% | -5.1 | COc1ccc(-n2nnnc2Sc2ccc(S(=O)(=O)N3CCOCC3)cn2)cc1 |
| -1.6% | -0.4% | -6.3% | x | Cc1ccc2nc(-c3ccncc3)cc(C(=O)N3CCOCC3)c2c1 |
| -0.6% | 1.9% | 8.0% | x | Cc1cc(OCC(=O)Nc2ccncc2)ccc1Cl |
| 1.2% | -5.1% | 11.7% | -21.7 | CCc1noc(N)c1C(=O)Nc1ccc(F)c(Cl)c1 |
| -4.1% | 1.4% | 4.2% | x | Cc1occc1C(=O)N1CCCC(N2CCN(c3cccc(Cl)c3)CC2)C1 (stereo unspecified) |
| 1.9% | 2.6%&-1.1% | 8.7% | x | COc1ccccc1N1CCN(C(=O)c2cc(-c3ccc(F)cc3)on2)CC1 |
| 0.5% | -56.9% | -17.7% | 2.5 | CC(/C=C/c1ccccc1F)=N\NC(=O)c1ccccc1 |
| 0.2% | 6.6% | 4.1% | -8.9 | Cc1ccc(S(=O)(=O)N2CCOCC2)cc1C(=O)N1c2ccccc2Sc2ccccc21 |
| -1.0% | x | 0.5% | x | CN(Cc1ccc(OC(F)F)cc1)C(=O)/C=C/c1ccc(S(=O)(=O)N2CCOCC2)cc1 |
| 2.9% | x | 13.6% | x | O=C(Nc1sc2c(c1C(=O)NCC(O)CO)CCCC2)c1ccccc1 (stereo unspecified) |
| 8.4% | x | -11.3% | x | COc1cccc(C2=CC(=O)C[C@H](c3ccc4c(c3)OCO4)C2)c1 |

Assay outcomes as filed in PubChem.
